Screening data deposited in PubChem by National Center for Advancing Translational Sciences (NCATS).
ClpP mod – qHTS Assay for Activators of ClpP; AID 651965, 2013; ATP-dependent Clp protease proteolytic subunit (Bacillus subtilis (strain 168)), P80244; Potency, µM (titrated, usually from 57.5 µM), inactives show at the top dose activity change, negative = active; purified B. subtilis ClpP, FRET peptide cleavage, 20 min; 340,000 tested, 1.9% active; active = well fitted falling curve with a large enough effect; inconclusive = small, poorly fitted or top-dose-only effect; inactive = no such curve, though single readings can be large or run the other way; also: the source files actives as falling curves though it sought activators and does not explain the sign; nearly all actives have a fitted effect of over 65% in size; many hits overshoot -100%
Target sequence (P80244 whole entry, looked up): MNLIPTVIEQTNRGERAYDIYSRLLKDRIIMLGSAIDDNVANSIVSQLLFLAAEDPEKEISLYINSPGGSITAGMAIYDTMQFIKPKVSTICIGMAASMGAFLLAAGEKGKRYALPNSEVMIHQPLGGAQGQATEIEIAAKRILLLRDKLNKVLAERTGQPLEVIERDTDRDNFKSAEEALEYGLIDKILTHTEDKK
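Buffer: 100 mM Tris/HCl pH8, 100 mM KCl, 0.05% low protease BSA, 2.5% glycerol, 0.01% Tween-20. ClpP 10 microg/mL final; 20 min RT; delta FRET normalized to ADEP and DMSO controls.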
* = called active by the depositor; u = inconclusive. Potency is read from the fitted curve at half-maximal effect.

SMILES	ClpP mod
Cc1nn(CCC(=O)N2CCN(c3ccccc3)CC2)c(C)c1S(=O)(=O)N1CCCC1	0.4%
CCc1ccccc1N(C)S(=O)(=O)c1ccc2c(c1)C(C)(C)C(=O)N2C	1.8%
CC(C)c1ccc(NC(=O)CC2NCCNC2=O)cc1 (centres undefined)	0.8%
Cc1ccccc1OCC(=O)Nc1ccccc1C(=O)OCc1cc(=O)n2c(C)csc2n1	2.7%
CC1CCN(c2csc3ccc(F)cc3c2=O)CC1	u
CCOc1ccc(-c2cc3nc(C4CCN(C(=O)OC(C)(C)C)CC4)c(C(=O)Nc4ccc(C)cc4C)cn3n2)cc1	-6.3%
Cc1cccc(CSCCNC(=O)C2CCN(S(=O)(=O)Cc3ccccc3)CC2)c1	-0.1%
COc1ccc(-c2cc(C(=O)Oc3cccc(C)c3)c3ccccc3n2)cc1	3.7%
COc1ccc(C(C(=O)Nc2ccc(F)cc2)N2CCN(c3cccc(C(F)(F)F)n3)CC2)cc1 (centres undefined)	u
Cc1ccc(Cl)cc1N1CCN(C(=O)CCSCc2ccccc2F)CC1	-1.8%
Cc1ccc(NC(=O)CN2C(=O)CSc3ccc(S(=O)(=O)N4CCCC4)cc32)c(C)c1	-4.2%
CCn1c2ccccc2c2cc(NC(=O)COc3cccc(C)c3)ccc21	u
Cc1ccc(CN(Cc2ccco2)C(=O)COc2cccc(C)c2C)o1	0.5%
CCc1ccccc1NCc1nnc2n1CCCCC2	-1.2%
Cc1ccc(N(CC(=O)Nc2ccc(Br)cc2)S(=O)(=O)c2cccs2)cc1	-1.3%
CC(=O)N1c2ccc(S(=O)(=O)N3CCC(C(=O)Nc4cccc(Cl)c4C)CC3)cc2CC1C (centres undefined)	0.2%
CN(C)c1ccc(C(I)C(I)c2ccnc3ccccc23)cc1 (centres undefined)	-14.2%
COc1ccc(C2c3c(-c4ccc(F)cc4)n[nH]c3C(=O)N2c2ccccc2)cc1OC (centres undefined)	0.6%
CCOc1ccc(C(=O)Nc2cccc(NC(=O)c3ccco3)c2)cc1Cl	213.0%
Cc1cc(C)n(-c2nnc(Nc3ccc(C)c(C)c3)c3ccccc23)n1	-3.6%
CN(C(=O)Cn1cnc2onc(-c3ccc(F)cc3)c2c1=O)c1ccccc1Cl	-1.3%
CCOc1ccc(CCN2C(=O)C(=O)N([C@@H](CC(C)C)CN3CCC[C@H]3CN3C(=O)C(=O)NC[C@@H]3Cc3ccccc3)C[C@@H]2CC(C)C)cc1	-0.2%
O=C1NC[C@@H](Cc2ccc(O)cc2)N(CCc2cc(C(F)(F)F)cc(C(F)(F)F)c2)C1=O	-0.7%
Cc1cc(-c2ccc(C)c(S(=O)(=O)N3CCN(c4cccc(C(F)(F)F)c4)CC3)c2)on1	-1.5%
CCOC(=O)c1ccc(NC(=O)Cn2c3ncccc3c(=O)n2-c2ccc(C)c(C)c2)cc1	4.1%
CCCN(C)C1CN(Cc2cn(Cc3ccc(C(F)(F)F)cc3)nn2)S(=O)(=O)C1 (centres undefined)	-1.7%
COc1ccc(CCNC(=O)C(=O)NCC(c2ccc3c(c2)OCO3)N2CCOCC2)cc1OC (centres undefined)	-0.7%
CCCCSCCCNC(=O)CN1C(=O)COc2ccc(S(=O)(=O)N3CCC(C)CC3)cc21	-3.4%
CCOC(=O)c1c(NC(=O)COc2cc(C)ccc2C(C)C)sc2c1CCCC2	-8.7%
CCOc1ccccc1-n1c(N)c(C(=O)OC)c2nc3ccccc3nc21	-22.4%
Cc1ccccc1CN1c2ccccc2S(=O)(=O)c2ccccc21	-7.4%
CCCCNC(=O)CCCn1c(=O)c2ccccc2n(Cc2ccc(Cl)cc2)c1=O	-2.5%
Cc1nc(CC(=O)Nc2ccc(C(N)=O)cc2)cs1	1.1%
CC(=O)c1ccc(NC(=O)CCn2nc(C)c(S(=O)(=O)N3CCC(C)CC3)c2C)cc1	0.2%
CN(C)CCNC(=O)Cn1nc(N2CCN(c3ccccc3)CC2)ccc1=O	-2.9%
CCOC(=O)c1c(NC(=O)C(C)Sc2cn(CCNC(=O)c3ccc(OCC)cc3)c3ccccc23)sc2c1CCC2 (centres undefined)	-2.5%
COc1cc(OC)cc(-n2c(=O)c3ccccc3n(Cc3ccccc3C#N)c2=O)c1	0.1%
CCOC(=O)C1=C(CN2CCN(c3ccc(OC)cc3)CC2)NC(=O)NC1c1ccc(OC)cc1 (centres undefined)	-7.0%
CC(C)Cc1ccc(S(=O)(=O)NCc2nc3cccnc3n2Cc2ccccc2)cc1	0.8%
Cc1ccc(C)c(NC(=O)Cn2cc(C(=O)c3cccs3)c3ccccc32)c1	u
CCOc1cc(-c2nnc(SCC(=O)NCCCOC)nc2-c2ccc(OC)c(OCC)c2)ccc1OC	-18.0%
O=C(Nc1ccc(F)c(Cl)c1)c1cc(S(=O)(=O)N2CCc3ccccc3C2)ccc1F	-24.6%
Cc1ccc(NC(=O)CCS(=O)(=O)c2ccc3c(c2)oc(=O)n3C)c(Br)c1	0.7%
COc1cc(N)c(N)cc1OC	-12.5%
CCOC(=O)c1ccc(NC(=O)CSc2nc3c(c(=O)[nH]2)CN(Cc2ccccc2)CC3)cc1	-8.6%
CCN(CC)c1nc(-c2ccccc2Cl)c2cc(Br)ccc2n1	-4.3%
CCc1ccc(-n2c(=O)c3sc4ccccc4c3n(CC(=O)N3CCCC3)c2=O)cc1	4.4%
O=C1CN(C(=O)c2ccc(S(=O)(=O)N3CCCC3)cc2)C(c2ccc(F)cc2)c2cc(F)ccc2N1 (centres undefined)	-1.6%
CCC(=O)N1CCc2cc(S(=O)(=O)NCCC(=O)Nc3ccc(CC)cc3)ccc21	-2.0%
Cc1ccc(Cl)cc1N1CCN(C(=O)C2CCN(S(=O)(=O)c3cccc4nonc34)CC2)CC1	-2.2%
CCC(C)NC(=O)CSc1nc2n[nH]c(C)c2c(=N)n1-c1ccc(C)c(Cl)c1 (centres undefined)	9.0%
CC(=O)c1cccc(NC(=O)c2noc3c2CC(C)CC3)c1 (centres undefined)	3.2%
CCn1cc(C(=O)NCc2ccccc2Cl)c(=O)c2cc(S(=O)(=O)N3CCCCC3)ccc21	-5.8%
O=C(NCCc1csc(-c2ccc(C(F)(F)F)cc2)n1)C(=O)Nc1cc(F)ccc1F	-0.1%
CCOc1ccccc1NC(=O)CSc1c2c(nc3ccc(Cl)cc13)CCCC2	-5.2%
O=C(Cn1cc(C(=O)C(F)(F)F)c2ccccc21)N1CCCCCC1	-0.6%
Cc1nn2c(=O)cc(COC(=O)c3ccccc3NC(=O)C(C)C)nc2s1	4.8%
COc1cc(OC)c(/C=C/c2ccnc3ccccc23)c(OC)c1	-0.4%
COc1cc2[nH]c(=O)n(CCCC(=O)NCc3ccc(Cl)cc3)c(=O)c2cc1OC	u
CCCCCCOc1ccc(C2C(=O)N(C3CCCCC3)CC(=O)N2C2CCCCC2)cc1 (centres undefined)	0.0%

Further results follow:
SMILES	ClpP mod
Cc1c(Cl)cccc1Nc1nn2c(=O)c3ccc(C(=O)NCCc4ccccc4)cc3nc2s1	258.4%
COc1cc(NC(=O)C2CCN(c3nc4ccccc4nc3C(F)(F)F)CC2)cc(OC)c1	-0.3%
COc1ccc(Cl)cc1NC(=O)C1CCN(c2ncnc3c2nc2n3CCCCC2)CC1	-0.3%
O=C(Cc1ccc(OCc2ccccn2)cc1)NO	-2.7%
Cc1ccc(NC(=O)COc2ccc(-c3nn(C)c(=O)c4ccccc34)cc2)c(C)c1	-13.9%
CN1C(=O)Cc2cc(S(=O)(=O)NCc3ccccc3Cl)ccc21	2.0%
CCOC(=O)c1c(S(=O)(=O)N2CCC(C(=O)Nc3ccc(OCC)cc3)CC2)c(C)n(C)c1C	-1.8%
CCCCN(CCC(=O)O)c1ccc(/C=C/c2ccnc3ccccc23)cc1	1.6%
Cc1cc[n+](CC(=O)c2ccc(F)cc2)c2ccccc12	-15.5%
CCOC(=O)c1c(C)oc2nc(C)nc(Nc3ccc(C)c(Cl)c3)c12	-0.8%
COc1ccc(CCNC(=O)c2cc(=O)c3c(C)cc(C)cc3o2)cc1OC	-0.4%
Cc1ccccc1Cn1cc(CCC(=O)NC(C)c2ccccc2)c2ccccc21 (centres undefined)	u
CCOc1ccccc1-c1nc(Cn2c(=O)cc(C)c3c(C)nn(-c4ccccc4)c32)c(C)o1	-10.7%
Cc1cc(C)c2c(n1)SCC(=O)N2CC(=O)Nc1cccc(C)c1C	3.1%
Cc1cc(C)c2c(NC(=O)c3ccccc3Cl)c(C(=O)NCc3ccc(Cl)cc3)sc2n1	-1.0%
COCCNC(=O)C1C(=O)Nc2ccccc2C(=O)N1c1ccc2c(c1)OCCO2 (centres undefined)	-5.8%
COc1cc(OC)c(NC(=O)COCc2cc(-c3cccs3)on2)cc1Cl	-3.6%
Cc1c2cnn(-c3ccccc3)c(=O)c2c(C)n1CC(=O)Nc1ccccc1Br	-5.2%
CCC1CCCCN1C(=O)Cn1c(=O)n(-c2ccc(Cl)c(Cl)c2)c(=O)c2c(C)c(C(=O)N(C)C)sc21 (centres undefined)	-2.0%
COC(=O)c1c(NC(=O)C2c3ccccc3Oc3ccccc32)sc2c1CCC(C)C2 (centres undefined)	-8.8%

Pulled by compound from the list above, six records:
SMILES	ClpP mod
CCCCN(CCC(=O)O)c1ccc(/C=C/c2ccnc3ccccc23)cc1	1.6%
COc1ccc(CCNC(=O)c2cc(=O)c3c(C)cc(C)cc3o2)cc1OC	-0.4%
O=C(Cc1ccc(OCc2ccccn2)cc1)NO	-2.7%
Cc1ccc(NC(=O)COc2ccc(-c3nn(C)c(=O)c4ccccc34)cc2)c(C)c1	-13.9%
CN1C(=O)Cc2cc(S(=O)(=O)NCc3ccccc3Cl)ccc21	2.0%
Cc1cc(C)c2c(n1)SCC(=O)N2CC(=O)Nc1cccc(C)c1C	3.1%

Returning to the listing, repeating the 3 entries before the break.
SMILES	ClpP mod
Cc1c2cnn(-c3ccccc3)c(=O)c2c(C)n1CC(=O)Nc1ccccc1Br	-5.2%
CCC1CCCCN1C(=O)Cn1c(=O)n(-c2ccc(Cl)c(Cl)c2)c(=O)c2c(C)c(C(=O)N(C)C)sc21 (centres undefined)	-2.0%
COC(=O)c1c(NC(=O)C2c3ccccc3Oc3ccccc32)sc2c1CCC(C)C2 (centres undefined)	-8.8%
Cc1ccc(NC(=O)CSCc2cnn(-c3ccccc3)c2-n2cccc2)c(C)c1	-3.4%
Cc1nn(-c2ccccc2)c(OC(=O)c2ccc(Cl)cc2)c1S(=O)(=O)c1ccccc1	2.1%
COc1ccc(NC(=O)N[C@H]2C=C[C@@H](CC(=O)NC3CCC3)O[C@@H]2CO)cc1	-0.2%
CN(C)c1ccc(C(CNS(=O)(=O)c2ccc(Br)cc2)N2CCCC2)cc1 (centres undefined)	-0.6%
CC(C)c1ccc(NC(=O)c2cccn2-c2nnc(N3CCCCC3)s2)cc1	u
O=C(CN1CCN(Cc2ccc(Cl)cc2)C1=O)NCc1ccc(F)cc1	-3.3%
CC(C)(C)C(=O)Nc1ccc(-c2nc3ccccc3s2)cc1	10µM*
CCOc1ccc(NC(=O)c2c(NCc3cccs3)sc3c2CCC(C)C3)cc1 (centres undefined)	-0.7%
Cc1ccccc1OCCCCn1nnc2sc3c(c2c1=O)CCC(C)C3 (centres undefined)	0.6%
CC(=O)c1c(C)nc2nc(-c3ccccc3)nn2c1C	-3.2%
COc1ccc(C)c2sc(NC(=O)c3ccc(S(=O)(=O)N4CCOCC4)cc3)nc12	4.1%
Cc1cc(C)cc(NC(=O)Cc2csc(COc3cccc(C)c3)n2)c1	-1.5%
COc1ccccc1C(=O)Nc1ccccc1OCc1cc(=O)n2ccccc2n1	0.3%
Cc1ccc(-n2nc(C(=O)N(C)c3ccccc3Cl)c3c4ccccc4n(C)c3c2=O)cc1	-3.4%
O=C1COc2cc(S(=O)(=O)CCC(=O)N3CCN(c4cccc(Cl)c4)CC3)c(Cl)cc2N1	-2.6%
Cc1ccc(-n2c(=O)c3c(cnn3C)n(CC(=O)Nc3c(C)cccc3C)c2=O)cc1	-5.7%
Cc1nc2cc(-c3cccc(F)c3)nn2c(C)c1CCC(=O)Nc1ccccc1C(N)=O	19.8%
Cc1ccc(C)c2c(/C=C/c3ccc(N(C)C)cc3)ccnc12	1.2%
CCCCc1ccc(-n2nc3cc(C)c(NC(=O)Cc4ccccc4)cc3n2)cc1	-17.9%
COc1ccc(-c2[nH]ncc2C(=O)NCc2ccccc2C)cc1	-2.6%
CCc1c(-c2ccc(F)cc2)ncn1Cc1cccc(-c2ccccc2)c1	-16.7%
Cc1ccc(NC(=O)CCCN2C(=O)COc3ccc(C)cc32)c(C)c1	0.4%
Cn1cc(/C=C/c2ccnc3ccccc23)c2ccccc21	-1.3%
Cc1cc2n(n1)CCC(=O)N2Cc1ccc(C(=O)Nc2ccc(F)cc2F)cc1	1.9%
COc1ccc2cc3c(N)nn(C(=O)c4ccc(F)cc4Cl)c3nc2c1	-0.8%
COc1cc(/C=C/c2ccc3ccccc3[n+]2C)cc(OC)c1OC	-9.9%
C=CCc1ccccc1OCCSc1nc(-c2cccs2)nc2cc(=O)[nH]n12	139.3%
O=C(CCCCn1c(=O)c2ccccc2n(CC(=O)Nc2ccccc2)c1=O)NCc1ccccc1Cl	-2.9%
CC(C)(C)c1ccc(C(=O)N2CCN(Cc3cc(=O)n4nc(-c5ccccc5F)sc4n3)CC2)cc1	-11.5%
COc1ccc(NC(=O)CCc2c(C)nc3c(c2C)c(=O)n(C)c(=O)n3C)c(OC)c1	-5.0%
Cc1ccccc1C(=O)Nc1cccc(OCc2cc(=O)n3cccc(C)c3n2)c1	-5.5%
Cc1cccc(-c2nc(SCCCOc3ccccc3Cl)n3[nH]c(=O)cc3n2)c1	-2.9%

This is a subset; rates above refer to the full screens.
